Sfp PPTase inh = Sfp phosphopantetheinyl transferase inhibition. Biochemical Sfp PPTase activity, qHTS. Potency, µM, inactives show max response, negative = inhibition, actives largely listed as inhibitors. AID 1490. Q9F4F7. hit rate 3.5% among 310,000; active means well fitted inhibition curve with a large enough effect; inconclusive means small, poorly fitted or top-dose-only effect, or another doubt; inactive means no such curve, though single readings can be large or run the other way;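 further: the enzyme is Sfp with the accession as filed and its product quenches rhodamine fluorescence; potency means the concentration at half of the fitted maximal effect; 0% = enzyme reaction without inhibitor and -100% = no enzyme wells; top concentration of the series not given in the record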
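Buffer: 50 mM Hepes-Na pH 7.6, 10 mM MgCl2, 0.01% Nonidet P-40, 0.01% BSA. Enzyme 15 nM, pre-exposed to compound 15 min; substrates then added and fluorescence change tracked over 30 min.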
TRPML1 ag = activates the human TRPML1 channel; Q9GZU1; TRPML1-expressing cells, Ca2+ dye fluorescence, FDSS; host cell line not named in the record; reference of the full effect not given here; activation, % (test concentration not listed); hit rate 0.12% among 410,000; in the data active = activation above about 50%; inconclusive = about 30% to 50%; inactive = below about 30%; further: 0% is about no effect; the text of the record puts the active cut at 80%
Target sequence (Q9GZU1 whole entry, looked up): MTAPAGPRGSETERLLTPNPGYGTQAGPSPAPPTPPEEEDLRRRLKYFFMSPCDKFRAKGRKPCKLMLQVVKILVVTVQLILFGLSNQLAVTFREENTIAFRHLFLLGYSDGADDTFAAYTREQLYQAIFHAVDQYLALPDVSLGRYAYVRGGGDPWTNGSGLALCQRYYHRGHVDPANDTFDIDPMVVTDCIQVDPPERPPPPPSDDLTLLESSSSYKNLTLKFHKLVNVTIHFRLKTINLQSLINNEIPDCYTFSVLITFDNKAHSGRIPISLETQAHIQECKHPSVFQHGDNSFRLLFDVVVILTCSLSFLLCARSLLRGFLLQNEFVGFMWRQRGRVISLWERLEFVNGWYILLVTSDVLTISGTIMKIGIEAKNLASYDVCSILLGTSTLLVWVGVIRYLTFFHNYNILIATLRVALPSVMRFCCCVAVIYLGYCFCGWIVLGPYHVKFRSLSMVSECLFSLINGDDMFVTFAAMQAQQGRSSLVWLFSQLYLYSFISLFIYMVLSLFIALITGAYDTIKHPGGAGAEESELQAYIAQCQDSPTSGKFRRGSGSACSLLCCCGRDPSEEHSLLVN
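Kinetic FDSS Ca2+ read in Tet-induced TRPML1-DL cells (ABD Ca8 dye plus quencher, 45-90 min RT loading): baseline, then compound, then 110 s agonist window; EC80 agonist 54-4 at 4uM final added afterwards for a 110 s antagonist window.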
PINK1 expr mod = PINK1 expression modulation; hit rate 0.2% among 410,000; AID 624263; PINK1 immunofluorescence, high-content cytometry, 24 h; Potency, µM (titrated, usually from 76.6 µM), for the others: at the top dose activation (PINK1 increase), most hits filed as activators; active = well fitted activation curve with a large enough effect; inconclusive = small, poorly fitted or top-dose-only effect; inactive = flat fitted curve, though single readings scatter; cell line not stated here;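 further: potency means the concentration at half of the fitted maximal effect; % of control where 0% means no effect; nearly all actives have a fitted effect of over 65% in size; a mitochondrial uncoupler was the plate control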
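Readout is PINK1 immunofluorescence, quantified alongside mitochondrial, cell and nuclear markers by laser-scanning microplate cytometry. Cells from a stable line were exposed to compound titrations (5 concentrations) for 24 hours, with CCCP controls.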
TRPV1 PAM = human TRPV1 potentiation | Q8NER1 | TRPV1-expressing cells, Fluo-8 calcium influx, capsaicin EC20 potentiation; host cell line not named in the record; control for the full effect not named in the record | hit rate 0.02% among 320,000 | potentiation, % at 8.33 µM | AID 540277; active means potentiation above 80%; inconclusive means 30% to 80%; inactive means below 30%; further: 0% is about no effect
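TRPV1-expressing cells were cultured overnight at 35.5C and loaded with Fluo-8 calcium dye for 40 to 90 min at room temperature. After a 10 s baseline, compound was added and calcium influx was read kinetically for 3 min (ex 480/em 520 nm).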
TRPML1 inh = blocks the human TRPML1 channel | Q9GZU1 | activity change, negative = inhibition, % (test concentration not listed) | AID 624415 | TRPML1-inducible cells, Ca2+ dye fluorescence, FDSS; hits give low values; inhibition of EC80 agonist-evoked calcium signal | hit rate 0.02% among 390,000; in the data active means activity change below about -50%; inconclusive means about -30% to -50%; inactive means above about -30%;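 further: stimulus is agonist 54-4 at its EC80 concentration; on the % scale 0 is the no-effect control and ±100 the full control effect; compound concentration not given in the record; the text of the record puts the active cut at -80%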
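Calcium fluorescence in TRPML1-DL cells induced overnight with Tet: a 110 s read after compound pin addition, then a 110 s antagonist read after challenge with 54-4 at 4 uM final (EC80).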
ClpP mod = qHTS Assay for Activators of ClpP; Potency, µM (top dose mostly 57.5 µM), for the others: top-dose activity change, negative = active; hit rate 1.9% among 340,000; purified B. subtilis ClpP, FRET peptide cleavage, 20 min; active = well fitted falling curve with a large enough effect; inconclusive = small, poorly fitted or top-dose-only effect; inactive = no such curve, though single readings can be large or run the other way; further: potency means the concentration at half of the fitted maximal effect; the source files actives as falling curves though it sought activators and does not explain the sign; nearly all actives have a fitted effect of over 65% in size; many hits overshoot -100%
Target sequence (P80244 whole entry, looked up): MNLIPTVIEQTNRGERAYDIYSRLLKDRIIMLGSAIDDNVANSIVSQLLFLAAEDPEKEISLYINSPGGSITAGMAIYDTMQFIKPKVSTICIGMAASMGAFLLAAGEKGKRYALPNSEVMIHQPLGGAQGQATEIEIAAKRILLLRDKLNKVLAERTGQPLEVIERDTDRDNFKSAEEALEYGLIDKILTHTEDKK
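ClpP 10 microg/mL final, pH 8 Tris/KCl buffer with BSA, glycerol, Tween-20; compound pinned in; FRET-FV substrate; RT 20 min; Ex320/Em430; ΔFRET vs ADEP 5.8 microM, DMSO, no enzyme.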
Menin-MLL FL inh = displaces fluorescein MLL peptide from human menin | Fluorescence polarization, fluorescein-MLL peptide displacement from menin | FP activity change, % at 61.4 µM | 290,000 tested, under 10 active | AID 1766; inconclusive = falling polarisation curve, or a change in total fluorescence; inactive = total fluorescence flat and polarisation flat or rising; no compound was filed as active; the % refers to the polarisation; negative = inhibition;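 further: % of control where 0% means no effect; inhibitors lower the polarisation; unlabelled MLL peptide was the positive control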
Active calls of the source: *; ? = inconclusive; . = no result given; & = joins results of further samples; [ ] = another dose, or the depositor's remark.

compound	Sfp PPTase inh	TRPML1 ag	PINK1 expr mod	TRPV1 PAM	TRPML1 inh	ClpP mod	Menin-MLL FL inh
O=C(c1cccc(S(=O)(=O)N2CCCCC2)c1)N(CCc1ccccc1)Cc1ccccc1	.	0.1	0.6%	-13	65	1.2%	.
O=C(COC(=O)C1CC(O)CN1S(=O)(=O)c1ccc(Cl)cc1)c1ccccc1Cl (configuration not stated)	20%	1.8	0.1%	-2	49	-0.8%	5.0
O=C(Nc1ccc(S(=O)(=O)NCc2ccco2)cc1)c1ccc(F)cc1	4%	0.7	3.4%	0	-9	.	-1.1
CCCC1=C(C(=O)OCC)C(c2sccc2C)n2ncnc2N1 (configuration not stated)	5%	0.7	0.6%	-22	20	-1.6%	1.6
CC1CC(=O)NN=C1c1ccc(NCCO)c([N+](=O)[O-])c1 (configuration not stated)	14%	-0.6	-6.7%[38.3 µM]	-2	20	0.3%	4.6
CC1(C)NC(=O)N(CC(=O)OCc2cc(=O)n3cc(Br)ccc3n2)C1=O	15%	-0.4	0.2%	10	-4	0.4%	-1.2
CC(=O)N1CCN(S(=O)(=O)c2cccc(C(=O)OCc3cccc(F)c3)c2)CC1	.	-0.1	-0.9%	-11	-6	1.4%	.
COC(=O)c1ccc(Cn2cnc3nc4c(cc3c2=O)CCCC4)cc1	.	-0.3	1.2%	.	19	-2.4%	.
NC(=O)c1c(NC(=O)CS(=O)(=O)c2ccc(Cl)cc2)sc2c1CCCCC2	.	0.3	4.3%	.	18	0.2%	.
O=C(Nc1nc(SCc2ccc(F)cc2)ns1)c1ccco1	5%	0.9	1.6%[38.3 µM]	10	8	-1.9%	1.3
COCCn1nnnc1C(c1ccc(C)cc1)N1CCN(Cc2ccc3c(c2)OCO3)CC1 (configuration not stated)	17%	-0.1	-2.3%	0	-18	-0.4%	-2.3
CN(C)C(CNC(=O)c1ccc2ccccc2n1)c1ccccc1 (configuration not stated)	4%	-0.9	2.3%	-8	-2	1.1%	0.2
CCOC(=O)C(=O)Nc1nccs1	-1%	0.2	2.0%	3	17	0.3%	-2.6
CC1CCN(C(=O)CN2C(=O)NC3(CCCc4ccccc43)C2=O)CC1 (configuration not stated)	.	0.4	2.8%	12	10	3.0%	.
CCOC(=O)c1c(NC(=O)Nc2ccc(Cl)cc2)sc(C)c1C	14%	-0.2	6.1%	-16	2	?	3.4
CCOc1ccccc1N(CC(=O)NC1CCCC1)C(=O)CCC(=O)Nc1cc(C)on1	6%	-0.5	-0.3%	-10	11	0.5%	4.5
CCC(C(=O)NC1CCCC1)N(C(=O)Cn1nnc(-c2ccc(C)o2)n1)C(C)(C)C (configuration not stated)	?	1.1	3.1%[38.3 µM]	-1	4	-1.4%	11
COc1ccc(C(=O)Nn2c(SCc3ccc([N+](=O)[O-])cc3)nc3ccccc3c2=O)cc1	13%	-0.3	0.5%	23	8	-16%	2.4
CCN(CC)C(=O)CC(c1ccc(N(C)C)cc1)c1c(OC)cc(OC)c2c(-c3ccccc3)cc(=O)oc12 (configuration not stated)	-3%&-13%	1.5&0.1	15%	15	12&27	-0.2%	-6.1&1.2
O=[N+]([O-])c1ccc(Nc2nc(N3CCOCC3)nc(N3CCOCC3)n2)cc1	.	-0.5	11%	.	1	-4.5%	.
O=C(NCc1ccco1)c1ccc(CS(=O)(=O)c2cccc(C(F)(F)F)c2)o1	16%	-0.3	0.9%	2	-15	1.4%	2.9
O=[N+]([O-])c1ccn(-c2nc(-c3cccs3)cc(C(F)(F)F)n2)n1	10%	-0.9	5.3%	3	2	-1.2%	1.5
COc1ccccc1NC(=O)CSc1nnc(CC(=O)Nc2ccccc2C)n1C	-1%	0.0	0.2%	26	-11	.	-0.1
CC1CN(c2nc3ccccc3nc2C(C#N)C(=O)NCc2ccc3c(c2)OCO3)CC(C)O1 (configuration not stated)	5%	1.5	5.3%	20	-1	-2.1%	?
O=C(NC12CC3CC(CC(C3)C1)C2)N1CCN(c2ccccn2)CC1	-20%	0.3	-0.2%[38.3 µM]	-4	-4	?	0.0
COC(=O)Nc1ccc(C)c(NC(=O)OC)c1	6%	0.3	5.2%[38.3 µM]	12	-7	2.3%	0.7
CCOc1ccccc1NC(=O)CCc1c(C)nc2c(c(C)nn2-c2ccccc2)c1C	.	2.0	1.7%	.	1	-28%	.
COc1ccc(CN2CCNC(=O)C2CC(=O)N(C)Cc2nccs2)cc1OC (configuration not stated)	-13%	0.2	-0.9%	9	-15	-5.2%	-8.0
CCOC(=O)Cn1c(C)c(Br)c(=O)c2cccc(C)c21	-18%	1.4	-0.6%	-17	-1	0.1%	-1.2
CC(=O)c1cccc(NC(=O)CCc2c(C)nc3c(c(C)nn3-c3ccccc3)c2C)c1	.	1.5	3.8%	.	-6	?	.
CCc1c(C)nc2c(OC)cccc2c1Cl	12%	0.3&-0.5	1.1%	20	6	-16%&-14%	-5.2
CC(NC(=O)c1ccc(Br)cc1)C(=O)NC1=NCCS1 (configuration not stated)	2%	-0.4	2.0%	-1	18	.	5.8
CCCOC(=O)c1ccc(OCC(O)Cn2c(C)nc3ccccc32)cc1 (configuration not stated)	6%	-0.3	-0.9%	-22	18	1.0%	5.2
Cc1cccc(NC(=O)CCN2C(=O)C3C4C=CC(C4)C3C2=O)n1 (configuration not stated)	16%	-0.9	-1.2%	6	26	-7.2%	0.2
O=C(NCCc1ccncc1)Nc1cccc(Cl)c1	1%	-0.5	1.6%	-13	7	1.6%	3.2
CC(=O)Nc1ccc(NC(=O)c2ccc(Cl)nc2)cc1	25%	0.3	0.3%	4	-8	0.7%	-0.1
O=S(=O)(NCc1ccccc1)NCc1ccccc1F	5%	-0.4	0.5%	-1	-9	.	3.9
Cc1cc(Cl)c2c(c1)[C@]1(C(=O)N2)[C@@H]2C(=O)N(Cc3ccccc3)C(=O)[C@@H]2[C@@H]2CCCN21	-14%	5.2	-1.9%	2	-21	-1.0%	3.0
COc1ccc(CCNc2ccc(C(=O)O)cc2[N+](=O)[O-])cc1OC	11%	-1.0	-1.5%	0	-2	-2.6%	2.4
C/C(=N\NC(=O)c1cccc(Br)c1)c1ccc(Br)cc1	11%	0.5	?	.	28	-0.5%	-1.2
CCOc1ccc(C(=O)NC(=S)Nc2ccc(N3CCCCC3)cc2)cc1[N+](=O)[O-]	20µM*	0.1	?	13	3	2.0%	-0.2
N#CC(=C1CCCC1)c1nc(-c2ccccc2O)cs1	?	0.6	5.0%	4	-15	-3.7%	?
CCOC(=O)CSc1nnc(CNC(=O)c2cccs2)n1CCc1ccccc1	0%	0.1	1.8%[38.3 µM]	5	-15	-1.3%	0.1
CC1CCCC(NC(=O)CSc2nccn2C)C1C (configuration not stated)	3%	-0.6	2.2%	14	11	-0.8%	-0.2
Cc1[nH]c(=O)[nH]c(=O)c1S(=O)(=O)N1CCOCC1	8%	0.1	2.5%	-1	-14	0.1%	3.1
COc1cc(S(=O)(=O)N2CCOCC2)ccc1NC(=O)c1cc2c(s1)CCC2	-6%	-0.1	-1.6%	0	17	-2.0%	6.3
CCCCC(=O)N(c1ccc(OC)cc1)C1C=CS(=O)(=O)C1 (configuration not stated)	20%	-0.5	-4.2%[38.3 µM]	-10	-6	-2.7%	6.4
Cc1cc(Cl)cc(Br)c1OCCCCn1cncn1	?	-0.9	-0.3%	-18	5	0.6%	1.6
NNC(=O)[C@H](Cc1ccccc1)NC(=O)Nc1ccc2c(c1)OCCO2	13%	1.2	2.9%	.	50	.	-0.5
O=C(Nc1ccc(Cl)cc1)c1cncs1	7%	-0.4	-2.0%	-13	-9	-2.9%	0.7
CC(=O)Nc1cccc(C(=O)OCC(=O)Nc2c(C)nn(-c3ccccc3)c2C)c1	.	0.9	2.4%	6	-22	.	.
N/C(Cn1cncn1)=N\OC(=O)c1ccc(Cl)cc1Cl	20%	-0.2	4.1%	12	1	.	2.1
Cc1nn(-c2ccccc2)nc1CNC(=O)CC(C)(C)C	16%	-1.0	2.0%	-17	2	-17%	3.3
Cc1ccc(C(=O)NCCCNCCCNC(=O)c2ccc(C)nc2)cn1	-2%	0.0	-0.7%	6	10	-1.4%	3.9
COc1ccc(OC)c(-c2[nH]nc3c2C(c2ccco2)C(C#N)=C(N)O3)c1 (configuration not stated)	0%	-0.3	2.6%	?	-12	-5.9%	10
COc1ccc(S(=O)(=O)Cc2ccc(C(=O)NC(C)C)o2)cc1	-14%	0.7	0.7%	-2	-11	0.4%	2.4

(next part)
compound	Sfp PPTase inh	TRPML1 ag	PINK1 expr mod	TRPV1 PAM	TRPML1 inh	ClpP mod	Menin-MLL FL inh
CCOC(=O)c1c(C)[nH]c(C)c1S(=O)(=O)N(C)Cc1ccco1	6%	0.3	-0.8%	21	8	-0.8%	-0.8
O=C(NNC(=S)NCC1CCCO1)c1cccc(S(=O)(=O)N2CCOCC2)c1 (configuration not stated)	27%	-0.4	0.0%	?	29	-2.3%	0.5
COc1ccc(C(=O)NC2(C(F)(F)F)C(=O)NC(C)=C2C#N)cc1OC (configuration not stated)	.	-0.5	0.7%	.	-15	-1.0%	.
Cc1ccc(NC(=O)c2c(NC(=O)Cc3ccccc3)sc3c2CCCC3)cc1	.	2.4	-1.0%	-3	67	22µM*	.
CCOC(=O)c1oc2ccccc2c1CN1CCN(C)CC1	-14%	-0.1	3.5%	1	0	2.0%	3.9
Cn1ccnc1SCC(=O)c1ccc(F)cc1	.	1.1	-1.3%	.	34	-1.1%	.
CC(C)(C)c1ccc(C(=O)N2CCN(CCNC(=O)C(=O)NCc3ccccc3)CC2)cc1	-19%	-0.5	-0.7%	6	-6	-2.0%	0.4

Only Menin-MLL FL inh and TRPV1 PAM, for 2 of the compounds above:
mol	Menin-MLL FL inh	TRPV1 PAM
CC1CCCC(NC(=O)CSc2nccn2C)C1C (configuration not stated)	-0.2	14
COc1ccccc1NC(=O)CSc1nnc(CC(=O)Nc2ccccc2C)n1C	-0.1	26
